RE007 growth inh = qHTS Assay for Inhibitors of the HIV-1 protein Vpr; S. pombe RE007 Vpr strain, BacTiter-Glo ATP luminescence, 24 h; control for the full effect not named in the record; Potency, µM (highest dose often 92.2 µM), without a hit: at the highest dose activity change, negative = less growth; actives 0.21% (n = 360,000); active = well fitted falling curve with a large enough effect; inconclusive = small, poorly fitted or top-dose-only effect; inactive = no such curve, though single readings can be large or run the other way;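 also: % is scaled to controls: 0 for no effect and ±100 for the full control effect; nearly all actives have a fitted effect of over 50% in size; the assay follows cell death caused by Vpr and the record does not say whether a fall means rescue or toxicity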
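Fission yeast strain RE007, carrying one chromosomally integrated HIV-1 vpr copy, was seeded at OD 0.01 in PMG+AL medium with 23 nL pinned compound. After 24 h at 30 °C and 99% humidity, viability was read by BacTiter-Glo luminescence.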
MARV entry inh = qHTS for inhibitors of binding or entry into cells for Marburg Virus | Marburg virus pseudotyped entry inhibition, cell reporter; control for the full effect not named in the record; about a third of the inactives were read at about 46 µM | AID 540276, 2011 | actives 1.8% (n = 300,000) | Potency, µM (series often up to 37.8 µM), without a hit: top-dose activity change, negative = inhibition, usual class: inhibitors; active = well fitted inhibition curve with a large enough effect; inconclusive = small, poorly fitted or top-dose-only effect, or effect the other way; inactive = flat fitted curve, though single readings scatter; tested in HEK293 cells; about a fifth of its hits are not listed in these tables; also: % is scaled to controls: 0 for no effect and ±100 for the full control effect; luciferase read-out
2A StopGo = High Throughput Screening for Foot and Mouth Disease Virus Antivirals; actives 1.2% (n = 410,000); Potency, µM (series often up to 57.9 µM), inactives show top-dose signal change, negative = less light; human cells with a luciferase reporter of 2A StopGo recoding; control for the full effect not named in the record; AID 1159524, 2015; active = well fitted falling curve with a large enough effect; inconclusive = small, poorly fitted or top-dose-only effect; inactive = no such curve, though single readings can be large or run the other way; tested in HEK293T cells; also: % is scaled to controls: 0 for no effect and ±100 for the full control effect; nearly all actives have a fitted effect of over 45% in size; luciferase light after 4 h
SARS PLpro yeast = qHTS of Yeast-based Assay for SARS-CoV PLP; Potency, µM (highest dose often 32.9 µM), for inactives: at the highest dose activity, positive = growth rescue; AID 485353, 2010; actives 0.19% (n = 330,000); S. cerevisiae expressing SARS-CoV PLpro, growth rescue; control for the full effect not named in the record; active means well fitted rising curve with a large enough effect; inconclusive means small, poorly fitted or top-dose-only effect; inactive means no such curve, though single readings can be large or run the other way; also: 0% is about no effect; nearly all actives have a fitted effect of over 55% in size; growth read by luminescence after 48 h
LASV entry inh = qHTS for Inhibitors of binding or entry into cells for Lassa Virus. Lassa virus pseudotype entry inhibition, cell reporter; control for the full effect not named in the record. Potency, µM (top dose mostly 37.9 µM), for inactives: top-dose activity change, negative = inhibition, hits mostly inhibitors. actives 1.2% (n = 300,000). AID 540256, 2011; active means well fitted inhibition curve with a large enough effect; inconclusive means small, poorly fitted or top-dose-only effect, or effect the other way; inactive means flat fitted curve, though single readings scatter; tested in HEK293 cells; also: % is scaled to controls: 0 for no effect and ±100 for the full control effect; nearly all actives have a fitted effect of over 50% in size; luciferase read-out
Cruzain inh noDet = qHTS Assay for Promiscuous and Specific Inhibitors of Cruzain (without detergent); actives 2.3% (n = 200,000); purified cruzain, Z-FR-AMC fluorescence, no detergent; Potency, µM, inactives show max response, negative = inhibition, most hits filed as inhibitors; AID 1476, 2009;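 also: plate controls were enzyme without inhibitor for no effect and buffer without enzyme for full effect; nearly all actives have a fitted effect of over 40% in size; top concentration of the series not given in the record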
Target sequence (P25779 123-467 limits assumed): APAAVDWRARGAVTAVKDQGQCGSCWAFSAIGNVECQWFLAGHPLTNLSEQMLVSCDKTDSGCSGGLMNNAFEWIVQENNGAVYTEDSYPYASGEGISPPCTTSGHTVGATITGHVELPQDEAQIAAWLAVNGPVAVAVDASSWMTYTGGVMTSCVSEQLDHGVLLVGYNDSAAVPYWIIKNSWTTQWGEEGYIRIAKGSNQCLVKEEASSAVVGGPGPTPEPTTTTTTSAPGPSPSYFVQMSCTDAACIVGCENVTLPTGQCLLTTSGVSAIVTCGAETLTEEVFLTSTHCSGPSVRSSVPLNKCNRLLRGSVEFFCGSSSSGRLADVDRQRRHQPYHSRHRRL
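Detergent-free condition (0.00005% Triton X-100) in acetate buffer pH 5.5 with DTT. 1.5 nM enzyme and compound were pre-mixed 15 min, then 2 uM Z-FR-AMC substrate added; reaction progress from fluorescence change between first and third reads (60 s).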
Cruzain inh Det = qHTS Assay for Promiscuous and Specific Inhibitors of Cruzain (with detergent) | purified cruzain, Z-FR-AMC fluorescence, 0.01% Triton | Potency, µM, for inactives: max response, negative = inhibition, hits mostly inhibitors | actives 0.43% (n = 200,000);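 also: plate controls were neutral wells for no effect and buffer without enzyme for full effect; nearly all actives have a fitted effect of over 40% in size; top concentration of the series not given in the record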
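Enzyme 1.5 nM, Z-FR-AMC 2 uM, NaOAc 100 mM pH 5.5, DTT 5 mM, Triton X-100 0.01%; 15 min RT compound preincubation; kinetic ex360/em450, 60 s delta.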
NS1 function inh = qHTS Assay for Inhibitors of Influenza NS1 Protein Function; Potency, µM (titrated, usually from 46.1 µM), without a hit: at the top dose activity, positive = more growth; S. cerevisiae slowed by influenza A NS1, growth recovery by OD600; actives 0.4% (n = 270,000); active means well fitted rising curve with a large enough effect; inconclusive means small, poorly fitted or top-dose-only effect; inactive means no such curve, though single readings can be large or run the other way; also: nearly all actives have a fitted effect of over 50% in size
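A cell-based growth assay was used: compounds that relieve NS1-induced slow growth of budding yeast raise OD600. Assay medium was yeast nitrogen base with ammonium sulphate and -URA supplement, pH 6.0, with 2% galactose.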
An asterisk follows results filed as active; ? = inconclusive; · = not tested or not shown; & = joins results of further samples; [ ] = another dose, or the depositor's remark. Unless noted, calls follow the shape of the dose curve; as a rule, active = well fitted curve in the direction sought with a large enough effect; inconclusive = small, poorly fitted or top-dose-only effect, or another doubt; inactive = no such curve, though single readings can be large; an effect the other way counts as inactive or inconclusive. Potency is read from the fitted curve at half-maximal effect.

SMILES | RE007 growth inh | MARV entry inh | 2A StopGo | SARS PLpro yeast | LASV entry inh | Cruzain inh noDet | Cruzain inh Det | NS1 function inh
O=c1[nH]c(SCc2ccc([N+](=O)[O-])cc2)nc2c1CCCC2 | · | -18%[46.1 µM] | -15% | · | -1%[46.1 µM] | -5% | -3.3% | ·
CC(=O)NC(CC(=O)NNC(=O)COc1c(C)cccc1C)c1ccccc1 (configuration not stated) | 3% | 17% | -7% | 2% | 10% | · | · | ·
Cc1ccnc(N2CCCC(C(=O)NCc3cccs3)C2)n1 (configuration not stated) | -6% | 12% | 1% | 6% | 11% | -4% | -3.5% | 7%[9.22 µM]
Cc1ccc(Cl)cc1N1CCN(C(=O)c2cn(CC(C)C)c(=O)c3c2c2ccccc2n3C)CC1 | · | ? | -23% | · | ? | -13% | -7.0% | ·
Cc1cccc(N2CCN(C(=O)C3COc4ccccc4O3)CC2)c1C (configuration not stated) | -4% | · | -24% | -4% | · | · | · | -53%
COc1cccc(NC(=O)CSc2ncc3c(n2)-c2ccc(Cl)cc2N(C)S3(=O)=O)c1 | · | · | 2% | · | 6%[46.1 µM] | 0% | 0.7% | ·
COC(=O)C1=C(C)N(c2ccc(S(N)(=O)=O)cc2)C(=O)C1 | -2% | 7% | 3% | 4% | 7% | 0% | -0.2% | 6%
CCc1nn(CCCC(=O)Nc2ccc(C)c(C)c2)c(=O)c2cc3occc3n12 | 12% | ? | -1% | 3% | -1%[46.1 µM] | · | · | 10%
CSc1cccc(CN2CCN(Cc3ccc(F)c(F)c3)C(CCO)C2)c1 (configuration not stated) | -17% | ? | 18% | 0% | 23% | · | · | -5%
CCOc1ccc(OCc2cccc(C(=O)N3CCOCC3)c2)cc1 | -10% | 2% | -1% | 5% | · | 1% | 3.2% | -7%
CCOc1ccc(C(=O)NCc2nc3cccnc3n2Cc2ccc(F)cc2)cc1OCC | · | · | -18% | · | -17%[46.1 µM] | ? | 0.0% | ·
CCC1CCCCN1S(=O)(=O)c1ccc(C(=O)Nc2nnc(-c3cccs3)o2)cc1 (configuration not stated) | 7% | ? | -17% | 11µM* | ? | 4% | -11% | -97%
O=C(Oc1ccc2ccc(O)cc2c1)C1CCCCC1 | 21% | 27%[46.1 µM] | -1% | -1% | 18% | · | · | -10%
CCc1ccc(-c2csc(-c3cc4cc(Br)ccc4oc3=O)n2)cc1 | · | · | -9% | · | 15%[46.1 µM] | ? | 0.7% | ·
CCc1c(C)nc(SCC(=O)Nc2ccc3c(c2)OCCO3)[nH]c1=O | 5% | -13%[46.1 µM] | -5% | 0% | -8%[46.1 µM] | · | · | 3%
Cc1ccc(NC(=O)C2=CC(c3cccs3)=NS(=O)(=O)N2C)cc1 | -5% | ? | -8%&-14% | -9% | ? | -1% | -2.6% | 20%
COc1ccc(C(=O)C2CCCN(C(=O)c3cnsn3)C2)c(C)c1 (configuration not stated) | 34% | · | -2% | -1% | · | · | · | 1%
CCOC(=O)C1=C(N)N2C(=O)C(C)SC2=C(C(=O)OC)C1c1cccc(OC)c1 (configuration not stated) | -2% | · | -9% | 0% | · | -3% | -11% | ?
CCCn1c(=O)c2ccccc2n2c(SCCOc3ccc(C)cc3)nnc12 | -2% | 23% | · | -8% | -19% | 23% | -4.9% | ?
Cc1ccc(OCC(=O)N2CCc3ccccc32)cc1 | -17% | ? | 27% | -25% | ? | 6% | -0.6% | -17%
COc1cc(/C=C2/SC(=NCc3ccccc3)N(Cc3ccccc3)C2=O)ccc1O | 0% | 3% | -18% | -6% | -25% | -20% | -5.4% | ?
CCC(CC)n1[nH]c(=O)c2c(C)cc(C)nc21 | 20% | -1%[46.1 µM] | -16% | -2% | -6% | -2% | -2.1% | -22%
CCOc1ccc(-c2c(C(=O)N/N=C(\C)c3cccs3)nnn2-c2nonc2N)cc1 | 2% | -25%[46.1 µM] | 34% | -2% | -26%[46.1 µM] | · | · | 2%
O=C1c2cccc3cccc(c23)C(=O)N1c1nncs1 | 18% | -3% | ? | -2% | -10% | 1% | -4.0% | -2%
CCOC(=O)c1[nH]c(C)c(C(=O)NCC2CCCO2)c1C (configuration not stated) | 8% | 22% | -22% | -4% | 13% | 3% | 4.8% | 1%
SMILES | RE007 growth inh | MARV entry inh | 2A StopGo | SARS PLpro yeast | LASV entry inh | Cruzain inh noDet | Cruzain inh Det | NS1 function inh
CCOc1ccc(Br)cc1CNCCSc1nnnn1-c1ccccc1 | · | 7%[46.1 µM] | 0% | · | -6%[46.1 µM] | 9% | -1.3% | ·
Cc1ccc(NP(=O)(c2ccc(N(C)C)cc2NC(=O)c2cccs2)N2CCOCC2)cc1Cl (configuration not stated) | 0% | ? | -2% | 14% | 8% | 6% | -5.6% | 8%
CC(C)N(Cc1ccccc1)C(=O)CCS(=O)(=O)c1ccc2c(c1)oc(=O)n2C | -5% | · | -11%&-23% | 14% | ? | -14% | -2.5% | 8%
Cc1cccc(C)c1NC(=O)COC(=O)c1ccccc1[N+](=O)[O-] | 1% | -17%[46.1 µM] | -5% | -2% | 10%[46.1 µM] | · | · | ·
Cc1ccc(CN2CCN(Cc3ccccn3)CC2CCO)cc1 (configuration not stated) | -13% | 1%[46.1 µM] | -6% | 0% | 8%[46.1 µM] | · | · | -3%
CCCN1CCC(=O)N([C@H](CSc2ccc(OC)cc2)Cc2ccccc2)CC1 | 5% | · | -22% | 4% | · | · | · | 7%
CCOc1ccccc1NC(=O)CN1C(=O)COc2ccc(S(=O)(=O)Nc3ccccc3)cc21 | · | · | 5% | · | 11%[46.1 µM] | -21% | -3.2% | ·
COc1cccc(C(=O)NCCS(=O)(=O)N2CCC(C)CC2)c1 | 12% | 5% | -21% | 1% | -4% | · | · | ·
COc1ccc(C(=O)N2CCC(C(=O)Nc3ccccc3OC)CC2)cc1 | -15% | ? | -9% | 0% | ? | 1% | 5.3% | 2%
CCCCCC(=O)Nc1nnn(CCC)n1 | 0% | 14% | 31%[activator] | 7% | 0% | 2% | 6.2% | -4%
CC(C)Oc1ccc(C(=O)Nc2nc3ccccc3[nH]2)cc1 | -21% | ? | 7.9µM* | -5% | 1.1µM* | · | · | -12%
CCC(NC(=O)c1ccccc1NC(=O)C(C)(C)C)C(=O)N1CCCC1 (configuration not stated) | -15% | 12%[46.1 µM] | 6% | -14% | 5% | · | · | -12%
COc1ccc(-c2cc(C(=O)Nc3cc(C)n(Cc4ccc(Cl)cc4)n3)no2)cc1OC | -8% | ? | 3.5µM* | 4% | ? | ? | 2.2% | 5µM*
COc1ccc(CCN(C)C(=O)c2cc(S(=O)(=O)N3CCCCC3)ccc2Cl)cc1OC | 5% | ? | ? | 3% | -25% | · | · | ·
CC[C@]12c3[nH]c4cc(-c5ccco5)ccc4c3CCN1C(=O)[C@@H](CC(=O)NC(C)(C)C)C[C@@H]2C(=O)N1CCN(C(=O)c2ccco2)CC1 | -5% | 6% | -18% | 4% | · | · | · | ·
CCOC(=O)c1cnc2c(c(C)nn2-c2ccc(C)cc2)c1Cl | -3% | · | 14% | 1% | · | · | · | -2%
C/C=C/c1ccc(OCC(=O)OCc2csc(Nc3ccc(C)cc3)n2)c(OC)c1 | -5% | ? | 47%[activator] | 2% | ? | 1% | -6.0% | 13%
C#CCn1c(=NC(=O)CN2C(=O)CCC2=O)sc2cc(S(N)(=O)=O)ccc21 | -1% | ? | -9% | -31% | 8% | 4% | -3.0% | -1%
CC(C)c1ccc2[nH]c(O)c(N=NC(=O)c3cccc(S(=O)(=O)Nc4ccc(Cl)cc4)c3)c2c1 | -4% | -3% | 3% | -1% | ? | · | · | 2%
CCCc1c(C)nc(SCC(=O)C(C)(C)C)nc1OC(=O)N(C)C | 5% | ? | -25% | 1% | ? | · | · | -4%
O=[N+]([O-])c1cnc2nc(-c3ccncc3)nn2c1O | ? | ? | -15% | -8% | -10%[46.1 µM] | · | · | ·
C=CCNC(=O)C1CCCN(S(=O)(=O)c2ccc(-n3cnnn3)cc2)C1 (configuration not stated) | 18% | 2%[46.1 µM] | -3% | -3% | 13%[46.1 µM] | · | · | 13%
CCOC(=O)C1(C)C=C(Nc2cccc(C(=O)O)c2)C(=O)N1c1ccccc1 (configuration not stated) | · | ? | 51%[activator] | · | 9%[46.1 µM] | -2% | -3.1% | ·
CCn1c(CSc2nnc(-c3cccnc3)n2-c2ccccc2C)nc2cc(C(=O)O)ccc21 | · | 2% | · | -7% | · | 23% | 3.1% | ?
CCCCNC(=O)Cc1cc(=O)[nH]c(=O)[nH]1 | 6% | · | -10% | 0% | · | · | · | 1%
SMILES | RE007 growth inh | MARV entry inh | 2A StopGo | SARS PLpro yeast | LASV entry inh | Cruzain inh noDet | Cruzain inh Det | NS1 function inh
CN1CCN(CC(O)COCc2ccc3c(c2)OCO3)CC1 (configuration not stated) | 8% | 19% | 15% | -5% | -4% | 4% | 5.8% | 2%
Cc1cc(/C=N/Nc2ncnc(N)c2[N+](=O)[O-])c(C)n1-c1ccccc1 | -10% | ? | 3.5µM* | -1% | 1.1µM* | · | · | 4%
COc1ccc(NC(=O)N2CCc3ccccc3C2)c(OC)c1 | 15% | · | 40%[activator] | -8% | · | · | · | 1%
COc1ccc(C(=O)OCC(=O)Nc2ccc(OC(F)F)cc2)c(OC)c1 | -1% | -6% | 3% | -1% | 14% | -1% | -1.1% | -15%
Cc1oc(-c2cccc(Br)c2)nc1Cn1c(=O)cc(-c2ccccc2)c2c(C)nn(C)c21 | · | · | -17% | · | 13%[46.1 µM] | -6% | -1.7% | ·
Cc1ccc(-c2csc(=S)n2CC(=O)OCC(=O)NC(C)C(C)C)cc1 (configuration not stated) | -13% | -18% | ? | -1% | -23%[14.3 µM] | -1% | -3.8% | 12%
O=C(CN(c1cccc(C(F)(F)F)c1)S(=O)(=O)c1ccccc1)N1CCOCC1 | 0% | 18% | 41%[activator] | ? | 0% | ? | 5.2% | 7%
CCOC(=O)c1sc2nc(SC)nc(-c3ccc(Cl)cc3)c2c1N | -1% | 6% | 3% | -2% | 3% | -8% | 5.0% | 8%
O=C(Cn1nnc(-c2ccccc2Cl)n1)N1CCN(S(=O)(=O)c2ccc(Cl)cc2)CC1 | 17% | -27%[46.1 µM] | -19% | 5% | -17% | ? | -2.0% | ?
